FGF22 binding: binders of human FGF22 protein, primary screen, FGF22 synaptogenesis inhibitor project, biophysical, thermal shift, single point. Fibroblast growth factor 22 (Homo sapiens), Q9HCT0. recombinant FGF22 thermal shift, SYPRO orange fluorescence; percent of sucrose octasulfate shift, DMSO zero. calls only at 9.99 µM. actives 1.5% (n = 340,000);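 active = melting point raised past a set limit in the mean and every replicate; three in four hits are not shown here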
Vif TR-FRET: inhibitors of Vif binding to APOBEC3G peptide, primary screen, biochemical, TR-FRET, GST-Vif 1-94, biotin-A3G peptide, dose response retest (AID 1117319); Virion infectivity factor (Human immunodeficiency virus type 1 group M subtype B (isolate …; TR-FRET GST-Vif / biotin-A3G peptide binding; higher % means a stronger effect; test concentration not given here; strong numbers were not always called active; one-dose inhibition, %; IC50 in µM for titrated hits; actives 0.57% (n = 260,000);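 active = above the screen mean plus three standard deviations and confirmed in dose response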;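 also: Vif residues 1-94 fused to GST binding biotinylated APOBEC3G peptide 110-148; 0% = full assay without inhibitor and 100% = GST in place of GST-Vif; retest series ran down from 100 µM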
Ecoli growth: E. coli growth inhibition, primary screen, OD600 | Escherichia coli growth, 23 h; hits give low values | OD600 absorbance (test concentration not listed) | actives 0.21% (n = 330,000);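 active = OD600 absorbance below the run mean of sample wells minus 3.6 SD, in any replicate, cut at about 0.56 in these data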;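 also: stock transfer was 300 nL into about 60 µL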
ALR H2O2 inh: inhibitors of human ALR sulfhydryl oxidase, primary screen, biochemical, H2O2 detection, HRP-luminol luminescence, single point | FAD-linked sulfhydryl oxidase ALR (Homo sapiens), P55789 | purified ALR, DTT oxidation | inhibition, % (concentration not given with the values) | actives 3.8% (n = 290,000) | AID 485317, 2010;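 active = mean and each replicate at 75% or more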;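 also: stock transfer was 7.5 nL into about 7.5 µL; 0% = neutral wells and 100% = wells with inactivated enzyme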
rRNA inh HTS: reduced GFP signal of wild-type E. coli, primary screen, bacterial rRNA inhibitor project, GFP/RFP fluorescence, OD600, single point. E. coli WT GFP vs humanized-ribosome RFP mutants, 24 h; hits give low values; DMSO median 0, no signal -100. GFP signal change (wild-type ribosome), % (no concentration beside the values). actives 1.6% (n = 350,000);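 active = significant combined selectivity score with lowered wild-type GFP, culture density cut under 30%, mutant RFP and density less affected; inactive = any of these conditions unmet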; also: one replicate is shown; some compounds called inactive have numbers as strong as hits
HNF4A DNA FP: change in binding of human HNF4A to DNA, primary screen, biochemical, fluorescence polarization, FITC-DNA; actives 0.3% (n = 360,000); 1 h; AID 1224865, 2016; activity change, % at 10 µM; in the data active = activity change above about 30%, passing the limit was not always enough;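 also: controls were the assay level and a saturating level of protein; the project sought stronger binding though the title names inhibitors; some compounds called inactive have numbers as strong as hits; positive values seem to mean higher polarization but the record does not say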
Target sequence (P41235 whole entry, looked up): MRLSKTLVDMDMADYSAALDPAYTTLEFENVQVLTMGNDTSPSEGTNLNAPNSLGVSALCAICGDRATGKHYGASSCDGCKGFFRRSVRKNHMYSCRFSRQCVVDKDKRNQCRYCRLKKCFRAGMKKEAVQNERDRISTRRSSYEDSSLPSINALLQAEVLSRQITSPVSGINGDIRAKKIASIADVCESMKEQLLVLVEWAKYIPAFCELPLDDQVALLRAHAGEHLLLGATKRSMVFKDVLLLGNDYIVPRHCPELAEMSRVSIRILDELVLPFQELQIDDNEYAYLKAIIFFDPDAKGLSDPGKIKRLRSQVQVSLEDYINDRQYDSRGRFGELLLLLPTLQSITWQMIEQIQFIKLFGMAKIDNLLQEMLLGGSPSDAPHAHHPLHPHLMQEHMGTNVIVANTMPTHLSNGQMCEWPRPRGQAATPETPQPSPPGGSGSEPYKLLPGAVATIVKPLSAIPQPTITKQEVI
MLL AF4-AF9 inh: inhibitors of AF4 peptide binding to AF9, primary screen, biochemical, AlphaScreen, biotin-AF4 peptide, FLAG-AF9, single point. actives 0.47% (n = 350,000). Protein AF-9 (Homo sapiens), P42568. inhibition, % at 10 µM;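 active = every replicate reaching a set inhibition limit, whatever the replicate mean, cut at about 25% in these data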;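 also: 0% = plate neutral control median and 100% = total signal loss; the record names both 10 and 1 µM as test concentration; the first replicate is given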
Target sequence (P42568 whole entry, looked up): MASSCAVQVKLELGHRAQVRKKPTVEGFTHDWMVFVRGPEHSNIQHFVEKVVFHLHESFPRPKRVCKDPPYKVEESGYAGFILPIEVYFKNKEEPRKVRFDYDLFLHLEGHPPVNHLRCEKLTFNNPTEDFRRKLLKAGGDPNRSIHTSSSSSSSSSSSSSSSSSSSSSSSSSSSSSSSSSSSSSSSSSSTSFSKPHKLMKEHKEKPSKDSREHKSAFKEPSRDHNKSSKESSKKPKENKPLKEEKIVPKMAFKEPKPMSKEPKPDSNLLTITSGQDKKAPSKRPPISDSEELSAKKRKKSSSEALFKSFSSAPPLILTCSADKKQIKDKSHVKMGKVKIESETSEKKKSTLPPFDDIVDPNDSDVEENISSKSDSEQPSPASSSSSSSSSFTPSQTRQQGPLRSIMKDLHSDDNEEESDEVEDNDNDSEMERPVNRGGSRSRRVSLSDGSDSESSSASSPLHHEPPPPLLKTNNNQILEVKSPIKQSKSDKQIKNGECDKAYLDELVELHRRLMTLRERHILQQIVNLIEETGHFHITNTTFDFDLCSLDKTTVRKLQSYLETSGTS
rRNA inh HTS OD600: second read-out of rRNA inh HTS, no call of its own (marks repeat the call); OD600 change, %; measured here: OD600 growth;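 optical density of the mix in the first replicate; 0 = DMSO median and -100 = no signal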
rRNA inh HTS RFP: recorded beside rRNA inh HTS, whose call it bears; RFP signal change, %; measured here: RFP humanized mutant strains;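 first replicate; 0 = DMSO median and -100 = no signal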
Active calls of the source: *; i = inactive; . = not tested or not shown; & = joins results of further samples. An excerpt, so the mix of outcomes need not match the whole.

SMILES	FGF22 binding	Vif TR-FRET	Ecoli growth	ALR H2O2 inh	rRNA inh HTS	rRNA inh HTS OD600	rRNA inh HTS RFP	HNF4A DNA FP	MLL AF4-AF9 inh
COCC(=O)N(C)C[C@@H]1Oc2ncc(C3=CCCC3)cc2C(=O)N([C@@H](C)CO)C[C@@H]1C	i	.	.	.	2	7	-1.2	.	-2.4
Cc1cc(C)n(-c2nc(SCC(=O)O)c3c4c(sc3n2)COC(C)(C)C4)n1	i	-13%	0.68	.	-40	-52	-13	0.9	-2.3
CCC1(CC)Cc2ccccc2-c2nc(CN(C)C)[nH]c(=O)c21	i	-2%	0.7	-1	0	-6	19	-0.1	3.5
CCn1c(=N)n(CC(=O)c2ccc(Cl)c(Cl)c2)c2ccccc21	i	-6%	0.58	0	-9	-3	0.1	-4.2	1.9
Cc1cccc(N2CCN(S(=O)(=O)c3ccc4c(c3)C(C)(C)C(=O)N4C)CC2)c1C	i	.	0.75	-14	0	5	1.7	-4.4	-3.7
CCNC(=O)[C@@H]1[C@@H](CO)[C@@H]2Cn3c(cccc3=O)[C@@H]2N1Cc1ccccc1Cl	i	.	.	.	2	3	0.1	.	-0.2
O=C(Nc1ccc(NC(=O)c2sc3ccccc3c2Cl)cc1)c1ccco1	i	.	.	-2	.	.	.	1.4	-2.4
CCc1ccccc1NC1=NCC(=O)N1C1CCCC1	i	5%	0.67	-18	0	-2	-2.4	0.1	0.0
Cc1[nH]nc2c1C(CCc1ccccc1)C(C#N)=C(N)O2 (stereo not drawn)	i	3%	0.72	31	-12	-2	-0.3	1.3	-1.8
O=C(Cn1cc2c(n1)CCCCC2)NCc1ccccn1	i	-3%	0.69	49	11	17	-0.9	-2.3	-0.7
C[C@H](CO)N1C[C@H](C)[C@H](CN(C)C(=O)Nc2ccccc2)Oc2c(NC(=O)Nc3ccccc3)cccc2C1=O	i	.	.	.	-10	-8	-2.6	.	3.3
Cc1cc(C)cc(NC(=O)CN2CCN(c3ccccn3)CC2)c1	i	.	0.62	-2	-11	-13	2.0	3.9	-9.4
C[C@@H]1CN([C@H](C)CO)C(=O)c2cc(NS(=O)(=O)c3cccs3)ccc2O[C@@H](C)CCCCO[C@@H]1CN(C)C	i	.	.	.	0	-1	-1.1	.	0.3
COCCSc1nnc(NC(=O)CSCc2ccccc2)s1	.	7%	0.67	-3	-4	5	-1.5	2.9	.
COc1cccc2cc(C(=O)NC3CC4CCC3C4)oc12 (stereo not drawn)	i	.	0.69	-10	-31	-36	-3.0	-1.5	-1.4
CC(C)C#Cc1cnc2c(c1)C(=O)N([C@@H](C)CO)C[C@@H](C)[C@@H](CN(C)C(=O)c1ccc3c(c1)OCO3)O2	i	.	.	.	1	-2	0.8	.	-2.9
Cc1nnsc1NC(=O)OCc1ccc(C(C)(C)C)cc1	.	-3%	0.69	0	.	.	.	-4.3	.
CCN(CC)CCCN(Cc1cc2cc3c(cc2[nH]c1=O)OCO3)C(=S)Nc1ccccc1	i	15%	0.61	-13	8	5	0.3	3.2	3.2
O=C(NCC1CCCCC1)[C@@H]1[C@@H](CO)[C@@H]2Cn3c(cccc3=O)[C@H]1N2CCc1ccccc1	i	.	.	.	-10	-12	1.4	.	1.0
O=C(NCCCCNC(=O)c1c(F)c(F)c(F)c(F)c1F)c1c(F)c(F)c(F)c(F)c1F	.	-7%&-7%	0.71	-1	.	.	.	2.7	.
C[C@H](CO)N1C[C@H](C)[C@H](CN(C)Cc2ccccn2)Oc2ncc(C#CC3CC3)cc2C1=O	i	.	.	.	2	0	2.1	.	0.8
CC(C)c1ccccc1NC(=S)NC(=O)C1CCCCC1	i	.	0.71	-1	5	-17	2.4	1.3	1.4
CCCC(=O)Nc1ccc2c(c1)OC[C@H](C)N(Cc1cncnc1)C[C@@H](C)[C@@H](OC)CN(C)C2=O	i	.	.	.	3	2	-0.9	.	-1.0
Cc1ccccc1CN1C(=O)c2ccccc2C1c1nnnn1C(C)C (stereo not drawn)	i	.	.	.	-13	-9	-1.1	-0.2	0.0
NS(=O)(=O)c1cnccc1NCCc1ccccc1	i	.	0.6	-2	-5	-2	-4.8	1.4	-0.1
CCCC1(c2ccccc2)NC(=O)N(CC(=O)Nc2ccc3c(c2)OCCO3)C1=O (stereo not drawn)	i	.	0.67	.	-10	-7	3.3	-3.1	2.9
CCOC(=O)c1ccccc1Nc1cc(C)nc2nc(C)nn12	i	11%	0.74	.	0	-6	-0.5	4.7	-1.7
Cc1ccc(S(=O)(=O)N2CCCCC2)cc1C(=O)NCCc1ccccc1	i	2%	0.65	2	7	1	-2.0	4.4	-2.7
O=C(Cn1cccc1C(=O)c1ccccc1)NCCCN1CCc2ccccc2C1	i	-2%	0.58	-18	10	0	2.4	-3.4	2.5
COc1ccc(-c2[nH]ncc2/C=N\NS(=O)(=O)c2ccc(Cl)cc2)cc1	.	0%	.	24	.	.	.	-2.7	.
CCOc1cc(C(=O)N(C)CC(=O)Nc2cccc(F)c2)ccc1OCC(=O)N1CCCCC1	i	-5%	0.7	-2	0	1	-0.1	-1.1	-1.9
COc1ccc(NC(=S)N2CCN(S(C)(=O)=O)CC2)cc1OC	i	.	0.66	-43	-1	-19	-1.3	1.2	0.4
C/C=C/c1ccc([C@@H]2[C@H](CO)N3CCCCN(S(=O)(=O)c4cccc(C)c4)C[C@@H]23)cc1	i	.	.	.	-59	-74	-13	.	9.1
CN(Cc1ccc(Cl)c(Cl)c1)C(=O)c1cccc(S(=O)(=O)N2CCN(Cc3ccccc3)CC2)c1	i	-13%	0.68	-6	-5	-1	3.3	-0.1	13
CC(=O)c1ccccc1NS(=O)(=O)c1cccc2nonc12	i	.	0.71	11	13	3	0.5	2.9	-1.6
CCCNC(=O)N[C@H]1CC[C@@H](CC(=O)N2CCN(C)CC2)O[C@H]1CO	i	.	.	.	0	13	-2.6	.	0.8
Cc1cc(=O)oc2cc(NC(=O)COc3ccccc3[N+](=O)[O-])ccc12	i	5%	0.68	1	11	14	-2.7	-1.9	-3.9
CCOc1ccccc1NC(=O)CC1(CC(=O)N2CCOCC2)CCCC1	i	-3%	0.69	.	-1	4	-3.9	3.1	-4.2
COc1ccc(N2CCN(C(=O)C(Cc3ccccc3)NC(=O)c3ccccc3)CC2)cc1 (stereo not drawn)	i	.	.	.	-8	-26	-3.8	-0.9	13
CCOc1cc(C(=O)OCC(=O)c2c[nH]c3ccccc23)ccc1OCC(=O)N1CCOCC1	.	18%	0.71	-13	.	.	.	2.7	.

Two consecutive compounds from above, for reference:
SMILES	FGF22 binding	Vif TR-FRET	Ecoli growth	ALR H2O2 inh	rRNA inh HTS	rRNA inh HTS OD600	rRNA inh HTS RFP	HNF4A DNA FP	MLL AF4-AF9 inh
C[C@H](CO)N1C[C@H](C)[C@H](CN(C)Cc2ccccn2)Oc2ncc(C#CC3CC3)cc2C1=O	i	.	.	.	2	0	2.1	.	0.8
CC(C)c1ccccc1NC(=S)NC(=O)C1CCCCC1	i	.	0.71	-1	5	-17	2.4	1.3	1.4

Later entries:
SMILES	FGF22 binding	Vif TR-FRET	Ecoli growth	ALR H2O2 inh	rRNA inh HTS	rRNA inh HTS OD600	rRNA inh HTS RFP	HNF4A DNA FP	MLL AF4-AF9 inh
CSc1cccc(NC(=O)Nc2ccccc2)c1	.	-3%	0.63	-1	.	.	.	-1.0	.
Fc1ccc(C(CCCn2nnc(-c3cccnc3)n2)c2ccc(F)cc2)cc1	.	72%	0.65	0	.	.	.	5.7	.
COc1ccc(NC(=O)Nc2ccc3c(c2)C(=O)N([C@H](C)CO)C[C@H](C)[C@@H](CN(C)C(=O)Nc2c(C)noc2C)OCCCC[C@H](C)O3)cc1	i	.	.	.	-2	6	0.0	.	0.1
CCCNC(=O)Nc1ccc2c(c1)OC[C@@H](C)N(C(=O)C1CCC1)C[C@@H](C)[C@H](OC)CN(C)C2=O	i	.	.	.	-1	-5	-0.9	.	-2.7
CCN(CC)C1Oc2cc3c(cc2C(c2cc(OC)c(O)c(OC)c2)C1C)OCO3 (stereo not drawn)	i	0%	.	.	0	4	4.7	-2.2	6.1
CC(C(=O)O)n1nc(-c2ccccc2)c2ccccc21 (stereo not drawn)	i	-4%	0.63	-5	2	-2	-5.2	2.9	-2.5
COCCN(C(=O)Cc1cccs1)C(C(=O)NC1CCCC1)c1ccc(OC)c(OC)c1 (stereo not drawn)	i	16%	0.66	-19	13	16	-1.4	-0.2	-0.3
COC(=O)c1ccc(S(=O)(=O)NCCc2ccccc2OC)n1C	i	-1%	0.65	9	3	-3	1.0	1.9	-1.5
CC(c1nc2ccccc2[nH]1)n1c(=O)c(-c2ccco2)nc2ccccc21 (stereo not drawn)	i	.	.	.	16	19	5.4	23	0.0
COn1c(=O)c(-c2cccs2)[n+]([O-])c2ccccc21	.	4%	0.71	-3	.	.	.	-17	.
COc1ccc(OC(=O)c2cc3ccccc3o2)cc1	.	9%	0.68	-9	.	.	.	-0.6	.
C[C@@H]1CN([C@H](C)CO)C(=O)c2cc(NC(=O)Nc3ccc4c(c3)OCO4)ccc2O[C@H]1CN(C)S(=O)(=O)c1ccc(Cl)cc1	i	.	.	.	-7	-10	-0.4	.	5.2
CCc1ccccc1NC(=O)C(Cc1cccc(OC)c1OC)c1nn[nH]n1 (stereo not drawn)	.	0%	0.62	-34	.	.	.	1.7	.
CCC1=Nc2cc(C(=O)O)ccc2Sc2ccc(Cl)cc21	i	-2%	0.78	29	-11	-8	2.5	-5.5	8.2
C[C@@H]1CN([C@H](C)CO)C(=O)c2cc(-c3cccc(C(=O)N(C)C)c3)cnc2O[C@@H]1CN(C)C(=O)Cc1ccccn1	i	.	.	.	5	26	-2.9	.	0.1
CCNC(=O)CC1SC(=Nc2ccc(C)cc2)NC1=O (stereo not drawn)	.	-4%	0.67	-13	.	.	.	1.9	.
COc1ccc(C(=O)Nc2ccc3c(c2)C(=O)N(C)C[C@@H](OC)[C@H](C)CN(C(=O)C2CC2)[C@H](C)CO3)cc1	i	.	.	.	0	-7	3.0	.	-0.1
CCCN1C[C@@H](C)[C@H](OC)CN(C)C(=O)c2ccc(NC(=O)C3CCC3)cc2OC[C@@H]1C	i	.	.	.	2	2	-2.3	.	-0.3
CC(C)C[C@H](NC(=O)c1[nH]cnc1C(=O)N[C@H](C)c1ccccc1)C(=O)OC(C)(C)C	i	-4%	.	-4	6	-3	0.5	-2.5	3.2
O=C(Nc1ncn[nH]1)c1ccc(S(=O)(=O)N2CCOCC2)cc1	i	.	0.7	2	10	5	-3.1	4.1	1.6

One compound at a time (already shown). Values in the order: FGF22 binding	Vif TR-FRET	Ecoli growth	ALR H2O2 inh	rRNA inh HTS	rRNA inh HTS OD600	rRNA inh HTS RFP	HNF4A DNA FP	MLL AF4-AF9 inh
Listed for COc1ccc(OC(=O)c2cc3ccccc3o2)cc1 → .	9%	0.68	-9	.	.	.	-0.6	.
Listed for CCCNC(=O)Nc1ccc2c(c1)OC[C@@H](C)N(C(=O)C1CCC1)C[C@@H](C)[C@H](OC)CN(C)C2=O → i	.	.	.	-1	-5	-0.9	.	-2.7
Listed for COC(=O)c1ccc(S(=O)(=O)NCCc2ccccc2OC)n1C → i	-1%	0.65	9	3	-3	1.0	1.9	-1.5
Listed for CCC1=Nc2cc(C(=O)O)ccc2Sc2ccc(Cl)cc21 → i	-2%	0.78	29	-11	-8	2.5	-5.5	8.2
Listed for COn1c(=O)c(-c2cccs2)[n+]([O-])c2ccccc21 → .	4%	0.71	-3	.	.	.	-17	.
